Bioassay records: PubChem BioAssay, National Center for Advancing Translational Sciences (NCATS)
2A StopGo – High Throughput Screening for Foot and Mouth Disease Virus Antivirals | human cells with a luciferase reporter of 2A StopGo recoding; control for the full effect not named in the record | 1.2% of 410,000 active | Potency, µM (top dose mostly 57.9 µM), without a hit: at the highest dose signal change, negative = less light; active = well fitted falling curve with a large enough effect; inconclusive = small, poorly fitted or top-dose-only effect; inactive = no such curve, though single readings can be large or run the other way; tested in HEK293T cells; further: on the % scale 0 is the no-effect control and ±100 the full control effect; nearly all actives have a fitted effect of over 45% in size; luciferase light after 4 h
Cruzain inh noDet – qHTS Assay for Promiscuous and Specific Inhibitors of Cruzain (without detergent); purified cruzain, Z-FR-AMC fluorescence, no detergent; 2.3% of 200,000 active; Cruzipain (Trypanosoma cruzi), P25779; Potency, µM, for inactives: max response, negative = inhibition, usual class: inhibitors; AID 1476, 2009; active means well fitted curve in the direction sought with a large enough effect; inconclusive means small, poorly fitted or top-dose-only effect, or another doubt; inactive means no such curve, though single readings can be large; an effect the other way counts as inactive or inconclusive;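 further: plate controls were enzyme without inhibitor for no effect and buffer without enzyme for full effect; nearly all actives have a fitted effect of over 40% in size; top concentration of the series not given in the record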
Target sequence (P25779 123-467 limits assumed): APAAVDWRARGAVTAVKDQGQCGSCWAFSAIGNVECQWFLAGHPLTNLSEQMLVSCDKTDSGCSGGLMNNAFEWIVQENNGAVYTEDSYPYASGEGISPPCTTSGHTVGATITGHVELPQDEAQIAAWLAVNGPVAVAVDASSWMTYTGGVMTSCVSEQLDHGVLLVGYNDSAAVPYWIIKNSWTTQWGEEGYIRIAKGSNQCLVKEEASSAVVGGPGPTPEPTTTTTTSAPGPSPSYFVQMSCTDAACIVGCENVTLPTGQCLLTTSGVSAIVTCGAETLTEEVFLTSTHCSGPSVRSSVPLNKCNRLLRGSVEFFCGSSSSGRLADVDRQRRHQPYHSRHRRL
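Detergent-free condition (0.00005% Triton X-100) in acetate buffer pH 5.5 with DTT. 1.5 nM enzyme and compound were pre-mixed 15 min, then 2 uM Z-FR-AMC substrate added; reaction progress from fluorescence change between first and third reads (60 s).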
RE007 growth inh – qHTS Assay for Inhibitors of the HIV-1 protein Vpr. S. pombe RE007 Vpr strain, BacTiter-Glo ATP luminescence, 24 h; control for the full effect not named in the record. 0.21% of 360,000 active. Potency, µM (highest dose often 92.2 µM), for inactives: top-dose activity change, negative = less growth; active = well fitted falling curve with a large enough effect; inconclusive = small, poorly fitted or top-dose-only effect; inactive = no such curve, though single readings can be large or run the other way;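 further: on the % scale 0 is the no-effect control and ±100 the full control effect; nearly all actives have a fitted effect of over 50% in size; the assay follows cell death caused by Vpr and the record does not say whether a fall means rescue or toxicity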
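Fission yeast strain RE007, carrying one chromosomally integrated HIV-1 vpr copy, was seeded at OD 0.01 in PMG+AL medium with 23 nL pinned compound. After 24 h at 30 °C and 99% humidity, viability was read by BacTiter-Glo luminescence.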
MARV entry inh – qHTS for inhibitors of binding or entry into cells for Marburg Virus. Marburg virus pseudotyped entry inhibition, cell reporter; control for the full effect not named in the record; about a third of the inactives were read at about 46 µM. Potency, µM (doses to about 37.8 µM), for inactives: at the top dose activity change, negative = inhibition, most hits filed as inhibitors. 1.8% of 300,000 active. AID 540276, 2011; active = well fitted inhibition curve with a large enough effect; inconclusive = small, poorly fitted or top-dose-only effect, or effect the other way; inactive = flat fitted curve, though single readings scatter; tested in HEK293 cells; about a fifth of its hits are not listed in these tables; further: on the % scale 0 is the no-effect control and ±100 the full control effect; luciferase read-out
NS1 inh – qHTS Assay for Inhibitors of Influenza NS1 Protein Function | S. cerevisiae slowed by influenza A NS1, growth recovery by OD600 | Potency, µM (series often up to 46.1 µM), for the others: at the highest dose activity, positive = more growth | 0.4% of 270,000 active | AID 2326, 2010; further: actives are rising curves; nearly all actives have a fitted effect of over 50% in size
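A cell-based growth assay was used: compounds that relieve NS1-induced slow growth of budding yeast raise OD600. Assay medium was yeast nitrogen base with ammonium sulphate and -URA supplement, pH 6.0, with 2% galactose.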
Cruzain Triton – qHTS Assay for Promiscuous and Specific Inhibitors of Cruzain (with detergent) | purified cruzain, Z-FR-AMC fluorescence, 0.01% Triton | Potency, µM, without a hit: max response, negative = inhibition, actives largely listed as inhibitors | 0.43% of 200,000 active | Cruzipain (Trypanosoma cruzi), P25779; active means well fitted curve in the direction sought with a large enough effect; inconclusive means small, poorly fitted or top-dose-only effect, or another doubt; inactive means no such curve, though single readings can be large; an effect the other way counts as inactive or inconclusive;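 further: plate controls were neutral wells for no effect and buffer without enzyme for full effect; nearly all actives have a fitted effect of over 40% in size; top concentration of the series not given in the record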
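Read-out: AMC fluorescence (360 nm excitation, 450 nm emission), four reads over 2 min, first-to-third difference used. Conditions: cruzain 1.5 nM, Z-FR-AMC 2 uM, pH 5.5 acetate, 5 mM DTT, 0.01% Triton X-100.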
SARS PLP yeast – qHTS of Yeast-based Assay for SARS-CoV PLP. S. cerevisiae expressing SARS-CoV PLpro, growth rescue; control for the full effect not named in the record. Potency, µM (doses to about 32.9 µM), without a hit: at the highest dose activity, positive = growth rescue. 0.19% of 330,000 active. AID 485353, 2010; further: 0% is about no effect; nearly all actives have a fitted effect of over 55% in size; growth read by luminescence after 48 h
Lassa entry inh – qHTS for Inhibitors of binding or entry into cells for Lassa Virus | AID 540256, 2011 | Lassa virus pseudotype entry inhibition, cell reporter; control for the full effect not named in the record | Potency, µM (series often up to 37.9 µM), for inactives: at the top dose activity change, negative = inhibition, most hits filed as inhibitors | 1.2% of 300,000 active; active means well fitted inhibition curve with a large enough effect; inconclusive means small, poorly fitted or top-dose-only effect, or effect the other way; inactive means flat fitted curve, though single readings scatter; tested in HEK293 cells; further: on the % scale 0 is the no-effect control and ±100 the full control effect; nearly all actives have a fitted effect of over 50% in size; luciferase read-out
Active calls of the source: *; ? = inconclusive; / = not tested or not shown; & = joins results of further samples; [ ] = another dose, or the depositor's remark. Unless noted, the call rests on the fitted dose curve; in most records, active means well fitted rising curve with a large enough effect; inconclusive means small, poorly fitted or top-dose-only effect; inactive means no such curve, though single readings can be large or run the other way. Potency means the concentration at half of the fitted maximal effect.

smiles	2A StopGo	Cruzain inh noDet	RE007 growth inh	MARV entry inh	NS1 inh	Cruzain Triton	SARS PLP yeast	Lassa entry inh
CC(OC(=O)c1ccc(Cl)c(S(=O)(=O)Nc2ccc(F)cc2)c1)C(=O)NC(N)=O (stereo not drawn)	35.1%[activator]	/	1.1%	/	1.1%	/	0.2%	/
c1n[nH]c(NC2=NCCC2)n1	-14.3%	0.7%	16.9%	3.7%[46.1 µM]	-1.5%	9.1%	4.5%	-1.1%
O=C1CN(C(=O)c2ccccc2C(=O)O)c2ccccc2N1	-23.6%	/	-9.2%	-7.8%	10.4%	/	-10.3%	-2.5%
Cc1nn(Cc2ccccc2)c(C)c1C(=O)OCC(=O)Nc1ccccc1SCC#N	-15.5%	19.1%	?	-17.9%	-15.1%	0.1%	1.6%	22.1%
CCc1cc(=O)oc2c(C)c(OCC(=O)N3CCC[C@@H]3C(=O)O)ccc12	-15.5%	/	10.5%	/	0.7%	/	-3.0%	/
COc1ccc(S(=O)(=O)Nc2cc3c(cc2N2CCOCC2)n(C)c(=O)n3C)cc1	-15.2%	13.2%	/	-8.4%[46.1 µM]	/	-0.8%	/	?
O=C(NCCNC(=O)c1cc(Cl)ccc1Cl)c1ccccn1	11.6%	/	7.3%	10.2%[46.1 µM]	3.6%	/	-1.8%	-0.8%[46.1 µM]
O=C(CNC(=O)N1CC(=O)Nc2ccccc21)NCCc1cccc(F)c1	0.2%	/	2.6%	-12.6%[46.1 µM]	26.9%	/	0.8%	10.4%[46.1 µM]
Cc1ccccc1NC(=O)CSc1nc2c(oc3ccccc32)c(=O)n1-c1ccccc1F	-3.4%	-29.6%	/	-4.6%[46.1 µM]	/	-2.9%	/	/
NC(=O)C1CCN(C(c2ccccc2Cl)c2nnnn2CC2CCCO2)CC1 (stereo not drawn)	12.5%	8.7%	10.9%	?	-5.7%	4.1%	11.3%	12.8%
CCCN1CCN(C(=O)c2ccc(CS(=O)c3ccc(Cl)cc3)o2)CC1 (stereo not drawn)	11.7%	/	0.2%	/	-0.7%	/	2.2%	/
CCN(C(=O)c1ccc(Cl)cc1[N+](=O)[O-])c1ccccc1C	-12.1%	/	0.8%	?	/	/	-1.4%	-24.0%[46.1 µM]
COc1ccc(/C=C2\C(=N\O)C3CCN2CC3)cc1	14.5%	6.9%	11.8%	2.1%	4.6%	-3.1%	-5.3%	?
COC(=O)CSc1nc(SCc2ccccc2Cl)nc2c1CCCC2	4.2%	-14.0%	0.8%	-14.8%	-13.2%	-0.2%	-33.3%	-11.5%
CCOc1ccc(NC(=O)c2cc3c(s2)-c2ccccc2OC3)cc1	-26.5%	-25.8%	/	3.1%[46.1 µM]	/	-5.0%	/	/
CC(C(=O)NCc1ccco1)n1nc(-c2ccccc2)c2cc(Cl)ccc21 (stereo not drawn)	-24.7%	-10.1%	13.8%	/	0.0%	-1.7%	4.8%	/
CN(CC(=O)NCc1ccc(F)cc1)Cc1ccc(Br)cc1	-2.2%	/	-2.6%	-22.2%	-4.3%	/	0.4%	-22.2%
Cc1c(NC(=O)CCCCCN2C(=O)c3ccccc3C2=O)c(=O)n(-c2ccccc2)n1C	0.0%	2.4%	-11.4%	22.5%	-5.1%	-1.7%	-8.1%	-1.4%
O=C(CSc1nnc2c(n1)[nH]c1ccccc12)Nc1ccc(N2CCOCC2)cc1	-14.7%	/	19.4%	-23.0%	-0.3%	/	-0.9%	-17.0%
Cc1nc2sc(C(=O)Nc3ccc(F)cc3)c(N)c2c(-c2ccc(Br)cc2)c1C(=O)Nc1ccc(Cl)cc1	9.6%	-3.1%	/	?	/	1.1%	/	-0.3%[46.1 µM]
COC(=O)c1ccccc1NC(=O)C1CCN(C(=O)c2cc(OC)cc(OC)c2)CC1	-21.5%	11.3%	11.7%	-15.2%	-2.7%	-0.2%	-8.0%	-12.3%
Cn1cc(C(=O)NCc2ccccc2)c2ccccc21	-0.4%	/	9.7%	?	/	/	2.8%	-28.7%[46.1 µM]
Cc1cc(-c2onc(C)c2C(=O)N/N=C/c2ccccc2)no1	-15.9%	/	-5.5%	/	-4.3%	/	-1.6%	/
COc1cccc(N2C(=O)C3ON(c4ccccc4)C(c4cccs4)C3C2=O)c1 (stereo not drawn)	-5.3%	?	11.6%	4.8%	-2.3%	-0.2%	0.9%	/
CC(=O)c1ccc(OCC(O)CN2CCN(S(=O)(=O)c3cccc(Br)c3)CC2)cc1 (stereo not drawn)	-20.0%	/	-11.1%	?	-14.0%	/	-0.3%	1.6%[46.1 µM]
CC(C)(C)c1ccc(CNc2ccc([N+](=O)[O-])cn2)cc1	-20.8%	-11.3%	-15.3%	?	-3.7%	-12.9%	-46.3%	?
Cc1ccc(/C=C2\CCCC3=C2NC(=S)NC3c2ccc(C)cc2)cc1 (stereo not drawn)	1.9%	?	32.3%	-25.1%	?	-5.7%	11.4%	3.4%
CC(C)N1CCc2c(sc(N)c2C#N)C1	-24.0%	?	1.3%	-5.1%&-5.1%	-5.6%	-13.8%	-4.4%	1.7%
Cc1[nH]ccc(=O)c1OC1OC(CO)C(O)C(O)C1O (stereo not drawn)	-16.9%	-0.4%	0.9%	33.6%	5.2%	4.6%	2.1%	7.8%
O=C(NCc1cccnc1)Nc1cc(Cl)cc(Cl)c1	38.7%[activator]	/	-4.4%	/	-4.5%	/	-4.6%	/
COc1cc2c(C(=O)N3CCN(C)CC3)c(C)n(C)c2cc1Br	0.0%	-7.1%	-7.1%	-7.6%	5.2%	-3.3%	1.9%	-5.9%
N#Cc1ccccc1NC(=O)CN1C(=O)NC2(CCCC2)C1=O	2.9%	/	-3.5%	-8.8%[46.1 µM]	4.7%	/	0.7%	15.7%[46.1 µM]
Cc1nn(-c2ccccc2)c(Cl)c1/C=N/NC(N)=O	4.8%	/	9.7%	3.1%[14.2 µM]	-8.4%	/	3.4%	2.8%
CN(Cc1cccs1)C(=O)COC(=O)CNC(N)=O	6.7%	/	-4.5%	/	-2.4%	/	0.8%	/
COc1ccc2c(c1)CC(C1(O)C(=O)N(C)c3ccccc31)C2=O (stereo not drawn)	-14.8%	-3.7%	19.2%	?	2.6%	0.0%	5.1%	2.8%
COc1ccc(-c2nc3ccccc3o2)cc1NC(=O)COc1c(C)cc(Cl)cc1Cl	20.2%	-8.5%	/	5.3%[46.1 µM]	/	-1.2%	/	4.0%[46.1 µM]
CCOC(=O)c1[nH]c2ccc(Cl)cc2c1NC(=O)/C=C/c1ccc2c(c1)OCO2	-6.2%	-4.8%	2.6%	?	-1.2%	-5.7%	20.7%	?
CC(C)c1cc(C(=O)Nc2cccnc2)no1	15.7%	11.2%	-16.4%	?	-4.9%	10.1%	-6.7%	?
CCCCNC(=O)Cn1ncc2c(C)n(Cc3cccc(Cl)c3)c(C)c2c1=O	?	10.5%	/	2.0%[46.1 µM]	/	-1.5%	/	-13.2%[46.1 µM]
OCCCNc1nc(-c2ccc(Cl)cc2)nc2ccccc12	-21.0%	/	-17.0%	/	-63.3%	/	-5.7%	/
COc1ccc(S(=O)(=O)N(C)C2CCN(C)CC2)cc1	-20.8%	1.3%	7.1%	/	3.1%	5.8%	15.2%	/
COc1ccc2cc(C3=CCCC3(C)C(=O)O)ccc2c1 (stereo not drawn)	21.4%	/	-8.7%	16.6%[46.1 µM]	/	/	/	22.0%[46.1 µM]
CCNC(=S)NNC(=O)c1cccc(Br)c1	/	2.1%	0.7%	12.9%	11.2%	3.7%	3.3%	-2.4%
CN(C(=O)CSc1nc2c(c(=O)[nH]1)CCCC2)c1ccccc1	-21.6%	0.6%	/	-0.4%[46.1 µM]	/	0.4%	/	11.0%[46.1 µM]
COc1ccc(OC)c(CCNC(=O)C2=C(C)C(=O)OC23CCC(C)CC3)c1 (stereo not drawn)	-6.6%	20.6%	/	7.9%[46.1 µM]	/	-0.2%	/	-9.3%[46.1 µM]
CC1=CC2(O)OCCN(CCO)C2=CC1=O (stereo not drawn)	-0.7%	-6.5%	-3.7%	?	?	-4.0%	1.3%	-3.4%
Fc1ccc(Cn2c(-c3cccc(Br)c3)nc3ccccc32)cc1	-27.8%	8.9%	/	/	/	-5.5%	/	19.9%[46.1 µM]
CCOCc1nnc(NC(=O)CCC2CCCCC2)s1	-1.7%	/	-3.3%	?	-7.0%	/	4.2%	15.9%
COc1ccccc1NC(=O)CSc1nnnn1-c1ccc(F)cc1	0.0%	/	14.6%	-22.3%	2.9%	/	2.5%	-4.0%
Cc1ccc(N=c2sc(C)c(C)n2C)cc1	55.5%[activator]	-9.0%	-24.0%	?	7.9%	-1.5%	15.0%	?

Going on with the list.
smiles	2A StopGo	Cruzain inh noDet	RE007 growth inh	MARV entry inh	NS1 inh	Cruzain Triton	SARS PLP yeast	Lassa entry inh
COc1ccc(-c2n[nH]c3c2cnc2ccc(F)cc23)cc1	51.5%[activator]	-5.1%	/	/	/	-1.8%	/	?
CC(C)Oc1cccc(C(=O)Nc2ccccc2N2CCOCC2)c1	8.3%	-9.6%	-10.3%	-9.0%	-9.0%	-4.4%	-2.6%	-15.6%
COc1ccc(-n2nnnc2SCC(=O)c2ccc(OC)c(OC)c2)cc1	?	?	8.4%	-8.4%	-4.0%	-3.7%	-2.2%	-29.2%
CC1(C)Cc2c(sc(NC(=O)c3ccc(S(=O)(=O)N4CCCCCC4)cc3)c2C#N)C(C)(C)N1	-8.8%	/	-7.0%	-0.1%	15.9%	/	-0.3%	?
